Bioassay records from PubChem BioAssay.
A1 inhib – blocks A1 activity. MEF A1-2A-BIM cells, caspase-Glo luminescence, 3 h; percent of clofoctol signal, DMSO as zero. caspase activation, % (concentration not given with the values). 0.51% of 21,000 active. AID 2241;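 active means most replicate scores above 10, or exactly half above 10 with mean activity above 10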;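 further: effector caspase 3 and 7 activity cleaving a DEVD luciferin substrate; 50 nL library stock added to about 30 µL; numbers are from one replicate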
BJeLR viab HTS – compounds reducing viability of BJeLR cells. viability loss activity score, % (concentration not given with the values). BJeLR fibroblasts viability, CellTiterGlo ATP luminescence, 48 h; HRASV12, hTERT and SV40 LT/ST transformed. 0.64% of 30,000 active. AID 2275; in the data active means viability loss activity score above about 50%; about a fifth of its hits are not listed in these tables;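 further: higher score means fewer live cells and less ATP luminescence; stock transfer was 50 or 100 nL into about 30 µL; 0% = vehicle wells and 100% = a reference killing control; one replicate is shown; the record names a cut of 85%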
An asterisk follows results filed as active; x = not tested or not shown.

Structure | A1 inhib | BJeLR viab HTS
O=C1c2ccccc2-c2c(NCCc3ccccc3)c(=O)[nH]c3cccc1c23 | 2.6 | x
Cc1noc(C)c1NC(=O)N(C)C[C@@H]1Oc2c(NC(=O)Nc3ccc(F)cc3)cccc2C(=O)N([C@H](C)CO)C[C@@H]1C | x | 0.8
C[C@H]1CN([C@@H](C)CO)C(=O)c2cccc(NC(=O)c3cnccn3)c2O[C@@H]1CN(C)S(=O)(=O)c1ccc(F)cc1 | x | -5.6
COc1ccc(Cc2nnc(N)o2)cc1OC | 0.0 | -10
Cc1cc(C(=O)Nc2cccc3c2O[C@@H](CN(C)C(=O)NC2CCCCC2)[C@H](C)CN([C@@H](C)CO)C3=O)n(C)n1 | x | -5.1
c1ccc(-c2ccc3c(n2)CCc2ccccc2-3)cc1 | -6.0 | 3.0
C[C@H]1CN([C@@H](C)CO)C(=O)c2cc(NC(=O)NC3CCCCC3)ccc2O[C@H]1CN(C)Cc1ccc(Cl)c(Cl)c1 | 1.3 | -8.0
C[C@@H]1CN([C@@H](C)CO)C(=O)c2cc(NS(=O)(=O)c3ccccc3)ccc2O[C@H]1CN(C)S(=O)(=O)c1ccc(Cl)cc1 | 0.2 | -3.3
COc1ccc(S(=O)(=O)N(C)C[C@@H]2Oc3ccc(N(C)C)cc3C(=O)N([C@H](C)CO)C[C@H]2C)cc1 | 0.2 | -1.9
Cc1noc(C)c1S(=O)(=O)N(C)C[C@@H]1Oc2ccc(NS(=O)(=O)c3ccc(Cl)cc3)cc2C(=O)N([C@H](C)CO)C[C@@H]1C | 0.1 | -2.9
NC(=O)c1ccc[n+](CC(=O)c2ccccc2)c1 | -0.2 | 2.0
COc1ccc(CCNC(=O)CSc2ncnc3c2nnn3Cc2ccccc2)cc1OC | -1.8 | -5.4
Cc1ccc2nc(C3CCCCC3)oc2c1 | -3.0 | 0.9
C[C@H](CO)N1C[C@H](C)[C@H](CN(C)C(=O)Nc2ccc(C(F)(F)F)cc2)Oc2ccc(NS(C)(=O)=O)cc2C1=O | -0.1 | 1.1
COc1ccc(C(C)=O)c(O)c1 | 0.3 | -0.7
CCc1nn(C(CC)C(=O)NC2CCCC2)c(=O)c2cc3oc(C)cc3n12 (stereo unspecified) | -0.5 | 5.6
Cc1ccc(NC(=O)C2CCN(S(=O)(=O)c3c(C)nn(C)c3C)CC2)c(Cl)c1 | x | 3.3
CC(C)n1c(C(F)(F)F)nc2cc(C(=O)N3CCOCC3)ccc21 | 0.8 | -2.4
O=C(c1cccc(N2C(=O)c3ccccc3C2=O)c1)N1CCCCC1 | 0.3 | 4.2
NNC(=O)c1nnn(-c2nonc2N)c1CNc1ccccc1 | -0.3 | 2.5
C[C@H]1CN([C@@H](C)CO)C(=O)c2cccc(NC(=O)NC3CCCCC3)c2O[C@H]1CN(C)Cc1ccc(C(=O)O)cc1 | x | -0.2
COc1ccc(Sc2ccccc2COC(C)=O)c(C(=O)O)c1 | 0.0 | 0.8
CCc1nc2sc(C)c(C)c2c(=O)n1N | -0.4 | 0.4
Clc1ccc2c(c1)N=C(N1CCNCC1)c1ccccc1N2 | 1.3 | -0.5
COc1ccc(NC(=O)N(C)C[C@H]2Oc3ccc(NC(=O)Nc4ccccc4)cc3C(=O)N([C@@H](C)CO)C[C@@H]2C)cc1 | 0.6 | 4.0
C[C@H]1CN([C@@H](C)CO)C(=O)c2cccc(NC(=O)Nc3ccc4c(c3)OCO4)c2O[C@@H]1CN(C)C(=O)Nc1ccccc1 | x | -3.2
Cc1c(C(=O)NCc2ccc(N3CCN(C)CC3)cc2)cnn1-c1ccc(Cl)cc1 | 0.7 | -5.7
Nc1sc(-c2ccccc2)c(Cc2ccccc2)c1C(=O)O | 0.7 | 2.3
C[C@@H]1CN([C@@H](C)CO)C(=O)c2cccc(NS(=O)(=O)c3ccc(F)cc3)c2O[C@H]1CN(C)C(=O)Nc1ccccc1 | x | 2.9
Cc1c(OCC(F)(F)F)ccnc1CS(=O)c1nc2ccccc2[nH]1 (stereo unspecified) | -0.6 | 2.5
C[C@@H]1CN([C@H](C)CO)C(=O)c2cccc(NC(=O)Nc3ccccc3)c2O[C@H]1CN(C)C(=O)Nc1cccc2ccccc12 | x | 8.8
Cc1c(Cc2ccccc2)c(=O)oc2cc3oc4c(c3cc12)CCCC4 | 0.2 | -0.3
COc1ccc(-n2cnc3nc(C)c(C(=O)/C=C/N(C)C)c(-c4ccccc4)c32)cc1 | 0.7 | 1.4
C[C@@H]1CN([C@@H](C)CO)C(=O)c2cc(NC(=O)CCCCCC(=O)Nc3ccccc3N)ccc2O[C@@H]1CN(C)Cc1ccncc1 | x | 0.7
COc1cc(O[C@@H]2O[C@H](COC3OCC(O)C(O)C3O)[C@@H](O)[C@H](O)[C@H]2O)cc(OC)c1OC (stereo partly specified) | 0.1 | 2.8
CCc1ccc(NC(=O)C2CCN(C(=O)c3ccccc3C)CC2)cc1 | -0.5 | -2.9
CNC[C@@H]1Oc2c(NC(=O)C3CCOCC3)cccc2C(=O)N([C@@H](C)CO)C[C@H]1C | x | -1.2
CNC[C@H]1Oc2ccc(NC(=O)Nc3ccc(C(F)(F)F)cc3)cc2C(=O)N([C@H](C)CO)C[C@@H]1C | -0.4 | 5.5
C[C@@H]1CN([C@H](C)CO)C(=O)c2cccc(NC(=O)c3cnccn3)c2O[C@@H]1CN(C)C(=O)Nc1ccc2c(c1)OCO2 | x | 4.1
Cc1cc(O)c(C)c2c1Oc1c(C)c(O)cc(C)c1C(=O)O2 | 0.2 | -0.3
CSC(=NC#N)/N=c1/nc(SC)n(C)n1C | 0.0 | -1.3
CC(=O)Nc1nccc(-c2cc(-c3cccc(C(F)(F)F)c3)no2)n1 | -0.1 | 3.1
Cc1cccc(N(C)S(=O)(=O)c2cccc3nsnc23)c1 | x | -5.2
C[C@H]1CN([C@@H](C)CO)C(=O)c2cccc(NS(=O)(=O)c3cccs3)c2O[C@@H]1CN(C)Cc1ccccc1 | x | -0.4
COc1ccc(S(=O)(=O)Nc2ccc3c(c2)C(=O)N([C@@H](C)CO)C[C@H](C)[C@@H](CN(C)S(C)(=O)=O)O3)cc1 | 1.1 | 0.4
CCC(Cc1ccccc1)NC(=O)c1c[nH]c2ccc(S(=O)(=O)N3CCC(C)CC3)cc2c1=O (stereo unspecified) | 0.1 | 4.4
Cc1ccc(NC(=O)c2ccc3c(c2)CCO3)cc1 | -4.4 | 12
CC(C)n1cnc2cc(NCc3ccccc3O)ccc21 | x | 2.5
Cn1c(=NC(=O)CCOc2ccccc2)sc2cc(Br)ccc21 | 0.5 | -3.7
C[C@H](CO)N1C[C@H](C)[C@@H](CN(C)C)Oc2ccc(NC(=O)Nc3ccc4c(c3)OCO4)cc2C1=O | 0.1 | 7.2
Cc1ccc(C)c(S(=O)(=O)NCCCn2ccnc2)c1 | 0.0 | 2.6
C=C1C(=O)O[C@@H]2/C=C(/C)CC/C=C(/C(=O)O)C[C@@H](OC(=O)/C(C)=C/C)C12 (stereo partly specified) | -0.8 | -7.6
COc1ccc2nc3oc(C(=O)N4CCN(c5cccc(C(F)(F)F)c5)CC4)cc3cc2c1 | x | -0.3
O=C(OCCN1CCOCC1)c1ccc(O)cc1 | 0.6 | 6.6
C[C@@H]1CN([C@@H](C)CO)C(=O)c2cc(NC(=O)Nc3ccc(F)cc3)ccc2O[C@@H]1CN(C)Cc1ccc(Oc2ccccc2)cc1 | 0.3 | -3.9
C[C@H]1CN([C@@H](C)CO)C(=O)c2cc(NS(C)(=O)=O)ccc2O[C@@H]1CN(C)C(=O)Nc1ccc(F)cc1 | -0.7 | -1.4

Additional records:
Structure | A1 inhib | BJeLR viab HTS
O=C(N1CCOCC1)N1CCN(c2ccccc2F)CC1 | x | -2.2
C[C@@H]1CN([C@@H](C)CO)C(=O)c2cc(NS(C)(=O)=O)ccc2O[C@H]1CN(C)Cc1ccc2c(c1)OCO2 | -1.0 | -0.7
COC(CNC(=O)c1oc2ccc3c(c2c1C)C=CC(C)(C)O3)OC | 1.5 | 2.0
CC(C)NC(=O)N(C)C[C@@H]1Oc2c(NC(=O)C3CCOCC3)cccc2C(=O)N([C@H](C)CO)C[C@H]1C | x | 1.3
COc1ccc(NC(=O)N(C)C[C@H]2Oc3c(NC(=O)C4CCCCC4)cccc3C(=O)N([C@H](C)CO)C[C@@H]2C)cc1 | x | 2.1
COc1nnc(-c2ccc(C)c(S(=O)(=O)N(C)C)c2)c2ccccc12 | 0.1 | -0.7
C[C@H]1CN([C@@H](C)CO)C(=O)c2cc(NS(=O)(=O)c3cn(C)cn3)ccc2O[C@@H]1CN(C)S(=O)(=O)c1ccccc1 | -0.1 | 0.9
COc1cccc(NC(=S)N=S(C)(=O)c2ccccc2)c1 (stereo unspecified) | 0.1 | 3.0

Molecules above that contain a Cl atom (six):
Structure | A1 inhib | BJeLR viab HTS
C[C@H]1CN([C@@H](C)CO)C(=O)c2cc(NC(=O)NC3CCCCC3)ccc2O[C@H]1CN(C)Cc1ccc(Cl)c(Cl)c1 | 1.3 | -8.0
C[C@@H]1CN([C@@H](C)CO)C(=O)c2cc(NS(=O)(=O)c3ccccc3)ccc2O[C@H]1CN(C)S(=O)(=O)c1ccc(Cl)cc1 | 0.2 | -3.3
Cc1noc(C)c1S(=O)(=O)N(C)C[C@@H]1Oc2ccc(NS(=O)(=O)c3ccc(Cl)cc3)cc2C(=O)N([C@H](C)CO)C[C@@H]1C | 0.1 | -2.9
Cc1ccc(NC(=O)C2CCN(S(=O)(=O)c3c(C)nn(C)c3C)CC2)c(Cl)c1 | x | 3.3
Clc1ccc2c(c1)N=C(N1CCNCC1)c1ccccc1N2 | 1.3 | -0.5
Cc1c(C(=O)NCc2ccc(N3CCN(C)CC3)cc2)cnn1-c1ccc(Cl)cc1 | 0.7 | -5.7

(listing goes on)
Structure | A1 inhib | BJeLR viab HTS
Cc1cccc(C)c1OCc1nc2c3cnn(C)c3ncn2n1 | -0.5 | 12
O=C1CC(c2ccccc2)=Nc2ncccc2N1 | 0.6 | -1.3
Cc1cc(C)c2nc(NC3=NC(c4ccccc4)CC(=O)N3)nc(C)c2c1 (stereo unspecified) | 0.1 | 0.4
COc1cccc(CNC(C)c2ccccc2)c1OCc1ccccc1F (stereo unspecified) | x | 25
O=C(Nn1nnnc1Nc1ccccc1)C12CC3CC(CC(C3)C1)C2 | 1.9 | 8.9
CCCOc1ccc(/C(=N\O)C(C)(C)NO)cc1 | 0.4 | 1.1
Cc1ccc(S(=O)(=O)N(C)C[C@H]2Oc3ccc(NS(=O)(=O)c4cn(C)cn4)cc3C(=O)N([C@@H](C)CO)C[C@@H]2C)cc1 | 0.0 | 0.5
Cc1nn(-c2cc(Cl)ccc2Cl)c(N)c1-c1nc(-c2ccccc2)cs1 | -0.2 | 8.1
C[C@H](CO)N1C[C@H](C)[C@@H](CN(C)C(=O)NC2CCCCC2)Oc2c(NC(=O)c3nc4ccccc4s3)cccc2C1=O | x | 9.0
C[C@H](CO)N1C[C@H](C)[C@H](CN(C)Cc2ccccc2)Oc2ccc(NS(=O)(=O)c3ccc(F)cc3)cc2C1=O | 0.1 | -1.1
C[C@H](CO)N1C[C@H](C)[C@@H](CN(C)S(=O)(=O)c2cccs2)Oc2c(cccc2N(C)C)C1=O | x | -0.1
O=C(CCC1CCCC1)Nc1ccc2nc3n(c(=O)c2c1)CCCCC3 | 0.0 | -6.9
C[C@H](CO)N1C[C@H](C)[C@H](CN(C)CC2CC2)Oc2c(NC(=O)Nc3ccccc3)cccc2C1=O | x | 2.7
C[C@@H]1CN([C@@H](C)CO)C(=O)c2cc(NC(=O)Cc3cn(C)c4ccccc34)ccc2O[C@H]1CN(C)S(=O)(=O)c1ccc(Cl)cc1 | 0.0 | -1.5
Cc1ccc(C(C)C)c(OCC(=O)Nn2c(=O)[nH]c3ccccc3c2=O)c1 | -0.2 | -3.1
C[C@H](CO)N1C[C@H](C)[C@H](CN(C)S(=O)(=O)c2ccc(F)cc2)Oc2c(NC(=O)C3CCOCC3)cccc2C1=O | x | 0.1
Nc1cc(=O)[nH]c(=O)n1Cc1ccccc1 | x | 1.9
COc1ccc(NC(=O)N(C)C[C@H]2Oc3ccc(NS(=O)(=O)c4cn(C)cn4)cc3C(=O)N([C@@H](C)CO)C[C@@H]2C)cc1 | 0.3 | -0.5
Cc1nn(CC(O)Cn2c3c(c4ccccc42)CCN(C)C3=O)c(C)c1Br (stereo unspecified) | x | -2.7
O=C(Nc1ccc2c(c1)S(=O)(=O)c1cc(NC(=O)C3CCCCC3)ccc1-2)C1CCCCC1 | 0.3 | 4.6
COc1cc2c(cc1O)C(=O)CC1C(C)(C)C(=O)CCC21C (stereo unspecified) | -0.1 | 0.5
CC(=O)NCCc1nc2ccccc2n1CCc1ccccc1 | 0.6 | -4.6
COc1ccc(S(=O)(=O)Nc2ccc3c(c2)C(=O)N([C@H](C)CO)C[C@H](C)[C@@H](CN(C)S(=O)(=O)c2ccc(F)cc2)O3)cc1 | 0.2 | -1.3
CC1(C)CC(=O)c2sc(Nc3nc4c(F)cccc4s3)nc2C1 | x | 12
C[C@@H]1CN([C@H](C)CO)C(=O)c2cccc(NC(=O)C3CC3)c2O[C@H]1CN(C)S(=O)(=O)c1ccc(Cl)cc1 | x | 0.4
CC(C)(C)c1cc(C(=O)Oc2cccc(C(F)(F)F)c2)n(Cc2ccccc2)n1 | -0.2 | 0.8
N#Cc1cnc(Sc2nnc(-c3ccncc3)n2-c2ccccc2)nc1N | 1.1 | 5.0
C[C@H]1CN([C@@H](C)CO)C(=O)c2cccc(NC(=O)Nc3ccccc3)c2O[C@H]1CN(C)CC1CCCCC1 | x | 1.1
O=C1CCC(C(=O)Nc2cc(F)cc(F)c2)=NN1 | -0.4 | 1.5
COc1ccc(S(=O)(=O)N(C)C[C@H]2Oc3c(NC(=O)c4ccc(-c5nccs5)cc4)cccc3C(=O)N([C@@H](C)CO)C[C@@H]2C)cc1 | x | 1.3

Some of the compounds tested. The share of hits here may be higher or lower than overall.
